# Bioassay records deposited in PubChem by National Center for Advancing Translational Sciences (NCATS).
# 2A StopGo – FMDV 2A StopGo reporter, luciferase signal | human cells with a luciferase reporter of 2A StopGo recoding; control for the full effect not named in the record | Potency, µM (doses to about 57.9 µM), inactives show at the highest dose signal change, negative = less light | 1.2% of 410,000 active | AID 1159524; active = well fitted falling curve with a large enough effect; inconclusive = small, poorly fitted or top-dose-only effect; inactive = no such curve, though single readings can be large or run the other way; tested in HEK293T cells; note: % is set by controls: 0 for no effect and ±100 for the full control effect; nearly all actives have a fitted effect of over 45% in size; luciferase light after 4 h
# LASV entry inh – Lassa virus entry inhibition; Lassa virus pseudotype entry inhibition, cell reporter; control for the full effect not named in the record; Potency, µM (doses to about 37.9 µM), for inactives: at the top dose activity change, negative = inhibition, usual class: inhibitors; 1.2% of 300,000 active; AID 540256; active means well fitted inhibition curve with a large enough effect; inconclusive means small, poorly fitted or top-dose-only effect, or effect the other way; inactive means flat fitted curve, though single readings scatter; tested in HEK293 cells; note: % is set by controls: 0 for no effect and ±100 for the full control effect; nearly all actives have a fitted effect of over 50% in size; luciferase read-out
# Cruzain inh noDet – blocks cruzain activity in detergent-free assay. purified cruzain, Z-FR-AMC fluorescence, no detergent. AID 1476. P25779. 2.3% of 200,000 active. Potency, µM, inactives show max response, negative = inhibition, usual class: inhibitors;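 note: plate controls were enzyme without inhibitor for no effect and buffer without enzyme for full effect; nearly all actives have a fitted effect of over 40% in size; top concentration of the series not given in the record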
# Target sequence (P25779 123-467 limits assumed): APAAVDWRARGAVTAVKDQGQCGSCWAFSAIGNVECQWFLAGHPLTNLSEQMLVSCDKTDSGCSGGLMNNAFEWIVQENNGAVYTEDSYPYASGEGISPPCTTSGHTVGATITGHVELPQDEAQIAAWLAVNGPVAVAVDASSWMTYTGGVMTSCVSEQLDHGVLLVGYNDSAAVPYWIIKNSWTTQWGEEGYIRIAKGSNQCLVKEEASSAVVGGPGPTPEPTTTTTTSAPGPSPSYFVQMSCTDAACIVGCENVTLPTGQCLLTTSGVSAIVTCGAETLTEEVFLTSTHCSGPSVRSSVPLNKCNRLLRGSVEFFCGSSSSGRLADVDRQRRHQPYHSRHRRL
#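 Purified cruzain at 1.5 nM, pre-incubated 15 min with compound at room temperature in 100 mM sodium acetate pH 5.5, 5 mM DTT, 0.00005% Triton X-100. Reaction started with 2 uM Z-FR-AMC; AMC fluorescence increase over 60 s gives rate.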
# SARS PLpro yeast – blocks SARS-CoV papain-like protease in a yeast assay | S. cerevisiae expressing SARS-CoV PLpro, growth rescue; control for the full effect not named in the record | Potency, µM (highest dose often 32.9 µM), for inactives: top-dose activity, positive = growth rescue | 0.19% of 330,000 active | AID 485353; active means well fitted rising curve with a large enough effect; inconclusive means small, poorly fitted or top-dose-only effect; inactive means no such curve, though single readings can be large or run the other way; note: 0% is about no effect; nearly all actives have a fitted effect of over 55% in size; growth read by luminescence after 48 h
# RE007 growth inh – less growth of the S. pombe RE007 Vpr strain. Potency, µM (doses to about 92.2 µM), for the others: at the highest dose activity change, negative = less growth. AID 651644. 0.21% of 360,000 active. S. pombe RE007 Vpr strain, BacTiter-Glo ATP luminescence, 24 h; control for the full effect not named in the record; active = well fitted falling curve with a large enough effect; inconclusive = small, poorly fitted or top-dose-only effect; inactive = no such curve, though single readings can be large or run the other way;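 note: % is set by controls: 0 for no effect and ±100 for the full control effect; nearly all actives have a fitted effect of over 50% in size; the assay follows cell death caused by Vpr and the record does not say whether a fall means rescue or toxicity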
#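 Fission yeast strain RE007, carrying one chromosomally integrated HIV-1 vpr copy, was seeded at OD 0.01 in PMG+AL medium with 23 nL pinned compound. After 24 h at 30 °C and 99% humidity, viability was read by BacTiter-Glo luminescence.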
# NS1 inh – influenza NS1 inhibition; AID 2326; S. cerevisiae slowed by influenza A NS1, growth recovery by OD600; 0.4% of 270,000 active; Potency, µM (doses to about 46.1 µM), without a hit: top-dose activity, positive = more growth; active means well fitted rising curve with a large enough effect; inconclusive means small, poorly fitted or top-dose-only effect; inactive means no such curve, though single readings can be large or run the other way; note: nearly all actives have a fitted effect of over 50% in size
#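 S. cerevisiae expressing influenza A NS1, grown in glucose, washed, then diluted 1:100 into pH 6.0 -URA galactose medium with 23 nl compound. Growth recovery read as OD600; NS1-free strain serves as control.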
# Cruzain Triton – blocks cruzain activity in presence of Triton detergent | P25779 | purified cruzain, Z-FR-AMC fluorescence, 0.01% Triton | Potency, µM, for inactives: max response, negative = inhibition, actives largely listed as inhibitors | 0.43% of 200,000 active;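 note: plate controls were neutral wells for no effect and buffer without enzyme for full effect; nearly all actives have a fitted effect of over 40% in size; top concentration of the series not given in the record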
#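 Detergent-containing run (0.01% Triton X-100) in acetate buffer pH 5.5 with 5 mM DTT: enzyme at 1.5 nM final, 15 min compound preincubation at room temperature, then 2 uM Z-FR-AMC substrate. Activity taken as 60 s fluorescence increase at 360/450 nm.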
# MARV entry inh – blocks Marburg virus binding to or entry into cells; Marburg virus pseudotyped entry inhibition, cell reporter; control for the full effect not named in the record; about a third of the inactives were read at about 46 µM; 1.8% of 300,000 active; Potency, µM (highest dose often 37.8 µM), for the others: at the highest dose activity change, negative = inhibition, hits mostly inhibitors; active = well fitted inhibition curve with a large enough effect; inconclusive = small, poorly fitted or top-dose-only effect, or effect the other way; inactive = flat fitted curve, though single readings scatter; tested in HEK293 cells; about a fifth of its hits are not listed in these tables; note: % is set by controls: 0 for no effect and ±100 for the full control effect; luciferase read-out
# Starred values were filed as active, the others as inactive; ? = inconclusive; . = no result given; & = joins results of further samples; [ ] = another dose, or the depositor's remark. Unless noted, calls come from the whole dose curve; as a rule, active = well fitted curve in the direction sought with a large enough effect; inconclusive = small, poorly fitted or top-dose-only effect, or another doubt; inactive = no such curve, though single readings can be large; an effect the other way counts as inactive or inconclusive. Potency is the fitted concentration of half-maximal effect.
structure	2A StopGo	LASV entry inh	Cruzain inh noDet	SARS PLpro yeast	RE007 growth inh	NS1 inh	Cruzain Triton	MARV entry inh
CCOC(=O)C(NS(=O)(=O)c1ccc(Br)cc1)C(C)C (stereo not drawn)	25%	3%	-5%	11%	0%	-16%	-0.6%	-18%
COc1ccc(CCNC(=O)C2CC(c3cc(C(F)(F)F)cc(C(F)(F)F)c3)=NO2)cc1 (stereo not drawn)	-22%	.	.	0%	-3%	3%	.	.
Cc1ccccc1Oc1nc(-c2ccccn2)nc2ccccc12	-9%	?	.	-4%	?	-50%	.	?
CCOc1ccc(NC(=O)C2CCCN(S(=O)(=O)c3c(C)noc3/C=C/N(C)C)C2)cc1 (stereo not drawn)	-17%	0%[46.1 µM]	?	.	.	.	-11%	?
O=[N+]([O-])c1cccnc1S(=O)(=O)c1ccccc1	22µM*	?	.	-5%	7%	-83%	.	?
CCc1ccc(NCc2nc3ccccc3c(=O)[nH]2)cc1	-17%	-13%	-7%	-3%	-4%	2%	-1.7%	?
N#Cc1nc(-c2ccccc2F)oc1NCc1ccccc1	-10%	.	9%	-5%	6%	-49%	3.5%	.
CCOC(=O)c1c(NC(=O)CN(CC)CC)sc2c1CCN(C(=O)OCC)C2	?	?	-12%	4%	-5%	-26%	-3.3%	?
CCCN(CC(=O)Nc1ccccc1C)C(=O)C1CC(=O)N(c2ccccc2OCC)C1 (stereo not drawn)	1%	-18%	.	.	-7%	.	.	-1%[46.1 µM]
COc1c(C)cc(C(=O)C2CCCN(C(=O)c3cccc(F)c3)C2)cc1C (stereo not drawn)	-10%	?	.	0%	1%	-4%	.	-2%[46.1 µM]
CCc1nnc(NC(=O)CCC(=O)N2CCN(Cc3ccc(Cl)cc3)CC2)s1	?	-29%	3%	2%	-6%	-9%	-0.9%	-24%
O=[N+]([O-])c1cccc(-n2nnnc2CNCc2ccccc2)c1	-17%	.	.	1%	5%	-4%	.	.
N#C/C(=N/O)c1nc(-c2ccc(F)cc2)cs1	-8%	-15%	-5%	-131%	1%	-38%	-14%	-8%
COC(=O)c1cccc(N(C(=O)c2cnccn2)C(C(=O)NC2CCCCC2)c2cn(C)nc2C)c1 (stereo not drawn)	-24%	?	-9%	1%	-12%	4%	6.2%	?
CC1CCc2[nH]c3ccc(C(=O)NCC4CCCO4)cc3c2C1 (stereo not drawn)	6%	-17%	.	-4%	1%	.	.	?
CC1CCCC(NC(=O)COC(=O)Cc2cn3ccsc3n2)C1C (stereo not drawn)	-15%	?	-8%	-8%	-24%	7%	3.8%	22%
Cc1ccc(NC(=O)CSc2nnc(-c3ccco3)n2N)cc1F	-14%	.	.	7%	-5%	-6%	.	.
O=C(c1nn(Cc2ccccc2)c(=O)c2ccccc12)N1CCN(c2ccccn2)CC1	-29%	-24%	12%	-3%	-5%	-32%	-3.5%	-22%
COc1ccc(C2C(C(C)=O)=C(O)C(=O)N2CCCn2ccnc2)cc1 (stereo not drawn)	.	1%	-23%	-5%	-6%	-2%	-1.5%	9%
O=C(Cc1cccs1)Nc1nc(-c2ccc(F)cc2F)cs1	-29%	1.6µM*	-5%	-17%	-22%	-20%	-6.0%	?
COc1ccc(C2(CCN=Cc3ccc(N(C)C)cc3)CCOC(C)(C)C2)cc1 (stereo not drawn)	6%	?	.	-2%	-7%	-12%	.	-1%
Cc1cccc(-n2ncc3c2CCCC3NC(=O)CCN2Cc3ccccc3C2=O)c1C (stereo not drawn)	-7%	0%	.	3%	11%	?	.	?
COc1ccc(S(=O)(=O)NCC2CCCN(Cc3cccnc3)C2)cc1 (stereo not drawn)	-14%	.	.	0%	0%	4%	.	.
CCCCOc1ccc(S(=O)(=O)N2CCN(c3ccc(N4CCN(CC)CC4)nn3)CC2)cc1	-24%	2%	.	5%	-14%	.	.	24%
CC(=O)c1ccc(OCCCC(=O)Nc2cc(Cl)ccc2-n2cncn2)cc1	0%	-2%	.	-5%	-17%	-3%	.	-12%
COc1ccc(OCCSc2nc(C)nc3ccccc23)cc1	?	?	.	-4%	5%	.	.	?
COc1ccc(-n2nc(C(=O)NCC(=O)N3CCOCC3)c3ccccc3c2=O)cc1OC	-12%	5%[46.1 µM]	.	-3%	-1%	8%	.	-15%[46.1 µM]
O=C(CSCc1c(Cl)cccc1Cl)NN=C1CCCC1	27%	?	.	-8%	-6%	.	.	10%[46.1 µM]
CCc1ccc(NC(=O)Cc2ccc(OC)cc2)cc1	.	4%	8%	-18%	.	-5%	-6.3%	11%
COc1cccc(/C=N/NC(=O)CNC(=O)COc2ccccc2)c1O	8%	.	.	7%	22%	-8%	.	.
O=C(N/N=C/c1cccc(O)c1)c1ccc(COc2ccccc2Br)cc1	0%	12%	18%	-7%	22%	?	2.0%	?
COc1ccc(NC(=O)C2CCCN(C(=O)c3cnn(-c4ccccc4)c3-n3cccc3)C2)cc1 (stereo not drawn)	-12%	?	?	.	.	.	-2.9%	?
COc1ccc(-n2ncc3c(NCc4ccco4)ncnc32)cc1	16%	-21%	-4%	2%	14%	-21%	-5.9%	?
N#CCSc1nc2ccc(N3CCCCC3)cc2c(=O)n1Cc1ccccc1	28%	?	25µM*	5%	7%	?	-0.9%	-30%&-30%
CC(NC(=O)C1CCC(CNc2c(N3CCCCC3)c(=O)c2=O)CC1)c1ccccc1 (stereo not drawn)	-12%	1%	.	1%	6%	2%	.	7%[46.1 µM]
Cc1ccnc(NS(=O)(=O)c2ccc3ccccc3c2)n1	40%[activator]	18%	.	-1%	-10%	15%	.	19%
Cc1cc(NC(=O)c2c(F)cccc2F)n(-c2nc3ccccc3[nH]2)n1	?	?	3%	5%	-4%	1%	-7.0%	?
Cc1ccc(NC(=O)c2nc(S(C)(=O)=O)ncc2N(Cc2cccc(F)c2)Cc2ccco2)cc1C	-1%	-4%[46.1 µM]	?	.	.	.	-3.1%	?
O=C(c1ccc(S(=O)(=O)N2CCOCC2)cc1)N1CCN(S(=O)(=O)c2ccc(Cl)s2)CC1	?	.	.	0%	13%	-3%	.	.
COc1cc2c(cc1OC)CN(C(=O)CCNS(=O)(=O)c1ccccc1F)CC2	-12%	-7%	.	2%	1%	4%	.	-3%
Cc1ccc2oc(-c3cccc(NC(=S)NC(=O)c4cccs4)c3)nc2c1	4%	?	?	4%	-16%	3%	-0.1%	?
Cc1ccc(S(=O)(=O)N2CCCC2C(=O)NCCc2nc3ccccc3[nH]2)cc1 (stereo not drawn)	-27%	-12%	-4%	-2%	-5%	-7%	-2.1%	4%&4%
O=S(=O)(Nc1ccc2c(c1)OCCO2)c1c(F)cccc1F	21%	-17%[46.1 µM]	.	1%	-11%	0%	.	-4%[46.1 µM]
O=C(Nc1cccc(C(F)(F)F)c1)c1cccnc1N1CCN(CCO)CC1	-5%	-4%	-5%	-2%	-17%	-29%	0.8%	1%
COc1ccccc1CNC(=O)COC(=O)Cc1ccc(Cl)cc1	-6%	0%	-4%	-11%	-2%	-29%	5.4%	18%
COc1ccccc1/C=C/C(=O)NCC(=O)N/N=C(/C)c1ccc(Cl)cc1	-14%	.	.	-4%	6%	4%	.	.
Cc1ccc(C(=O)N2N=C(c3ccc(NS(C)(=O)=O)cc3)CC2c2cccs2)cc1 (stereo not drawn)	0%	.	.	-2%	23%	16%	.	.
CCCCOC(=O)Cn1c(=N)n(CCN(CC)CC)c2ccccc21	-21%	-6%	-7%	-2%	-11%	1%	0.7%	?
COc1ccc(NC(=O)c2nnn(Cc3ccccc3C)c2N)c(OC)c1	-4%	-3%[46.1 µM]	-6%	.	.	.	-3.9%	0%[46.1 µM]
Cc1ccc2c(=O)c(C(=O)c3ccccc3)cn(CC(=O)NCc3ccccc3)c2n1	-20%	10%[46.1 µM]	-2%	.	.	.	0.2%	.
C/C(CC(=O)Nc1ccc2ccccc2c1)=N\NC(=O)c1ccc(O)c(O)c1	11%	?	.	-4%	-13%	-9%	.	-20%[46.1 µM]
CCOC(=O)CSc1nc2cccnc2n1-c1ccc(F)cc1	3%	1%	8%	-2%	7%	-8%	-0.5%	15%
C=CCOc1cccc(C2C(C(=O)c3ccc(C)o3)=C(O)C(=O)N2c2nccs2)c1 (stereo not drawn)	11%	8%	7%	-3%	-23%	3%	-15%	-3%&1%
CCOC(=O)C1=C(COC(=O)Cc2ccc(Br)cc2)NC(=O)NC1C (stereo not drawn)	-1%	-2%	.	-6%	1%	-11%	.	13%
NC(=O)Cn1nnc(-c2ccccc2NC(=O)c2cnccn2)n1	-11%	?	-3%	4%	3%	-2%	-0.8%	11%
O=C(NC(c1ccccc1)c1c(O)ccc2ccccc12)c1ccccc1Cl (stereo not drawn)	?	?	?	-11%	4%	-15%	-2.7%	-28%
CCOC(=O)[C@@H]1[C@H]2COc3ccccc3[C@@H]2N2C(=O)N(c3ccc(Cl)cc3)C(=O)[C@@]12C	20%	.	.	-4%	8%	-5%	.	.
COCCNC(=O)c1ccc(CS(=O)(=O)c2c(Cl)cccc2Cl)o1	-12%	.	-1%	-26%	5%	0%	-2.5%	.
CCOCCSc1n[nH]c(=O)n1CCc1ccccc1	-23%	.	.	0%	18%	0%	.	.
CCN(Cc1ccccc1)C(=O)Cn1c(=O)n(-c2ccc(Cl)cc2)c(=O)c2c(C)c(C(=O)N(C)C)sc21	-10%	22%[46.1 µM]	3%	.	.	.	2.6%	.

# Random draw from the library; 4.6% or so of the library scored in one or more.
